# Sa growth inh: S. aureus growth inhibition at 42 and 30 °C, primary screen, LtaS inhibitor project, RN4220, two temperatures. OD600, 20 h, 42 °C; stronger effect = lower value. relative growth, % (test concentration not listed). actives 0.53% (n = 170,000);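 active means growth at 42 °C up to 50% and 20 or more points under that at 30 °C, or under 10% at both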;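 further: 300 nL library stock went into each well; scaled to the means of positive and negative controls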
# HCMV UL50-53 inh: inhibitors of HCMV UL50-UL53 interaction, biochemical, HTRF; HCMV UL50-UL53 nuclear egress complex (human cytomegalovirus); normalized percent inhibition; inhibition, % (concentration not given with the values); actives 0.15% (n = 190,000);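 active means both replicates at 50% or more, plus weaker picks with an unusually low signal ratio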;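 further: stock transfer was 100 nL into about 20 µL; 0% = negative control wells and 100% = wells with untagged competitor protein; inactives centre near -12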
# GIV-Gai inh: inhibitors of GIV peptide binding to Galpha-i3, primary screen, biochemical, fluorescence polarization, FITC-GIV GBA peptide, rat Galphai3 | 90 min; stronger effect = lower value; scaled: aluminum fluoride 0%, vehicle 100% | actives 0.42% (n = 210,000) | Guanine nucleotide-binding protein G(i) subunit alpha-3 (Rattus norvegicus), P08753 | percent of control (FP), % (concentration not given with the values);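 active means replicate mean at 85% of control or lower, very high polarization wells dropped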;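 further: wells of about 15 µL received 100 nL stock; the first replicate is given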
# Target sequence (P08753 whole entry, looked up): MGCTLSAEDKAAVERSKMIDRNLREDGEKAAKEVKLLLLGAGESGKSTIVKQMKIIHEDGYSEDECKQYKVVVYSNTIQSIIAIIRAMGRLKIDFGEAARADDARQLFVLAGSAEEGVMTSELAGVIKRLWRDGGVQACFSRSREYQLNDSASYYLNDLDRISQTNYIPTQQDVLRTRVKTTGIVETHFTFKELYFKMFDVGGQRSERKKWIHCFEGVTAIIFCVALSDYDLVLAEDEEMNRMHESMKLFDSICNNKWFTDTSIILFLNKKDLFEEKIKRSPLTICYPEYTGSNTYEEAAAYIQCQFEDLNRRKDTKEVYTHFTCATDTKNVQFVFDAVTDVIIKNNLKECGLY
# Sa growth inh second temp: further read-out of Sa growth inh, marked with its call; relative growth, %; measured here: growth at 30 °C;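 optical density after 20 h as mean of two plates; 100% = untreated growth and lower means inhibition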
# Active calls of the source: *; · = no result given; & = joins results of further samples.
item	compound	Sa growth inh	Sa growth inh second temp	HCMV UL50-53 inh	GIV-Gai inh
1	CCOc1cc(S(=O)(=O)N2CCC(N3CCOCC3)CC2)c(OCC)cc1-n1cnnn1	91.0	79.3	-20.6&-14.1	107.9&102.0
2	Cc1ccc(C)c(NC(=O)N2CCN(c3cc(=O)n4nc(-c5ccccc5C)sc4n3)CC2)c1	·	·	-15.7	105.0
3	CC(C)(CN1CCN(Cc2ccccc2)CC1)NS(=O)(=O)c1ccccc1	124.7	92.4	9.6	·
4	O=C(Cc1ccccc1)Nc1cccc(C(=O)O)c1	99.9	82.4	-25.0	108.2
5	COc1ccc(NC(=O)Cn2c(=O)cc(C)c3c(C)nn(C)c32)cc1	103.7	89.4	·	103.5
6	O=S(=O)(c1cccc(Cl)c1)N1CCC(O)(c2ccc(Cl)cc2)CC1	105.6	104.2	5.8	103.3
7	CC(=O)NC(=O)c1ocnc1C	108.5	92.0	1.8	94.3
8	Cn1c(=O)c2[nH]c(NCc3ccccc3)nc2n(C)c1=O	107.2	74.5	5.6	101.1
9	FC(F)(F)Oc1ccc(Nc2n[nH]c(=S)s2)cc1	87.8	77.0	2.2	106.8
10	N#Cc1ccc(Nc2ccccc2)c(N)c1	100.7	98.5	-14.4	106.2
11	Cc1nn(-c2ccccc2)c(N)c1-c1ccc(Cl)cc1	·	·	-0.5	104.9
12	CCCc1noc2c1C1=NNC(=O)C1C(C)(C)C2 (stereo not given)	96.5	97.4	-9.8	104.4

# Next part, overlapping the part above by three compounds.
item	compound	Sa growth inh	Sa growth inh second temp	HCMV UL50-53 inh	GIV-Gai inh
10	N#Cc1ccc(Nc2ccccc2)c(N)c1	100.7	98.5	-14.4	106.2
11	Cc1nn(-c2ccccc2)c(N)c1-c1ccc(Cl)cc1	·	·	-0.5	104.9
12	CCCc1noc2c1C1=NNC(=O)C1C(C)(C)C2 (stereo not given)	96.5	97.4	-9.8	104.4
13	COc1ccc(-c2nc(SC3CCCC3)c3c(=O)n(C)c(=O)n(C)c3n2)cc1	121.3	93.5	1.5	107.9
14	COc1c(Br)cc(Br)c2c1OCCO2	81.5	86.2	-41.6	107.4
15	CCOc1ccccc1NC(=O)c1cc2ccc3cccnc3c2[nH]1	93.7	97.3	·	99.4
16	OCCN1CCN(C2CCN(C3CCCCCC3)CC2)CC1	90.8	78.6	-7.3	109.8
17	OC1(C#CCN2CCCCC2)CCCCC1	104.3	83.9	-16.8	100.9
18	Cc1ccc(CNC(=O)CSCc2nc(-c3ccc(Cl)cc3)oc2C)cc1	100.4	90.0	-7.5	105.6
19	CCCSc1nnc2c(n1)OC(c1ccc([N+](=O)[O-])o1)Nc1ccccc1-2 (stereo not given)	·	·	-41.4	103.7
20	CCn1cc(/C=C(\NC(=O)c2ccccc2Cl)C(=O)N2CCc3ccccc32)c2ccccc21	103.4	91.1	·	96.5
21	COC(=O)c1sccc1OCc1cccc(C(F)(F)F)c1	·	·	7.7	106.5
22	CCCCOc1ccc(Cn2c(=O)oc3ccc(C)cc32)cc1	91.2	87.9	-20.4	98.2
23	Cc1ccc(Nc2c(-c3cccnc3)nc3ccc(C)cn23)cc1	95.7	90.5	-1.3	102.2
24	Cc1ccc(C(C)C)cc1S(=O)(=O)Nc1ccccn1	98.0	69.4	-3.4	95.8
25	O=C(CSc1ncc(-c2ccccc2)n1-c1ccccc1)NC1CCS(=O)(=O)C1 (stereo not given)	110.9	88.1	-7.3	·
26	O=C(Nc1ccc(Cl)c(Cl)c1)c1cc(S(=O)(=O)N2CCN(c3cccc(Cl)c3)CC2)ccc1F	91.4	92.2	·	99.4
27	Oc1ccccc1CNc1ccc2c(c1)ncn2C1CCCCC1	109.1	93.9	-9.6	98.0
28	COC(=O)c1ccc(Cc2ccccc2)o1	110.5	91.4	-15.4	103.0
29	COC(=O)c1c(COC(=O)c2ccc(Br)o2)nc2ccccc2c1C	117.6	86.5	-11.5	·
30	O=C(NCc1cccs1)c1ccc(NC(=O)C2CCCO2)cc1 (stereo not given)	94.0	88.0	-3.4	99.9
31	N#C/C(C(=O)NCCN1CCOCC1)=c1/s/c(=C/c2ccccn2)c(=O)n1-c1ccc(F)cc1	126.2	95.8	3.6	·
32	O=C(Cn1cc2c(n1)CCCC2)Nc1cc(C(F)(F)F)ccc1Cl	101.4	95.0	0.5	99.5
33	COCc1cc(=O)n2c([nH]c3ccccc32)c1C#N	90.1	60.4	-26.9	·
34	Cc1ccc(-c2noc(-c3nnn(-c4ccc(Br)cc4F)c3C)n2)cc1	114.1	91.6	·	110.1
35	CCOc1ccccc1NC(=O)c1nn(C)c2c1CSc1ccccc1-2	81.3	92.2	-11.4	101.5
36	COc1ccc(OCC(=O)NCCc2nc(-c3ccc(C)cc3)n[nH]2)cc1	·	·	-23.3	96.7
37	Cc1ccc(N2C(=O)c3oc4cc(C)c(C)cc4c(=O)c3C2c2ccc(O)cc2)nc1 (stereo not given)	118.7	84.7	·	100.0
38	Cc1nc(-n2nc(C)c(Cl)c2C)sc1C(=O)N1CCOCC1	·	·	1.3	90.0
39	COc1ccc2[nH]c(C(=O)O)c(CCC(=O)O)c2c1	97.9	91.8	4.3	101.8
40	CCOC(=O)CC(C)(O)c1ccccc1 (stereo not given)	107.1	76.7	-15.5	101.5
41	CSc1nn(-c2ccccc2)cc1C(=O)Nc1ccccc1	100.5	97.7	6.6	106.3
42	O=C(CCn1c(=O)oc2ccccc21)NCCC1=CCCCC1	96.4	79.1	·	104.3
43	O=S(=O)(c1ccccc1)c1ccc(NCc2ccc3c(c2)OCO3)nn1	·	·	-26.5	93.0
44	O=C(NCC(c1cccnc1)N1CCc2ccccc21)c1cccc(C(F)(F)F)c1 (stereo not given)	88.0	89.5	-4.6	104.1
45	CC1CC(C)CN(Cc2nc3c(c(=O)n(C)c(=O)n3C)n2CC(N)=O)C1 (stereo not given)	92.9	95.5	·	98.2
46	COc1ccc(N2CCN(C(=O)CCc3c(C)nc4cc(-c5cccc(F)c5)nn4c3C)CC2)cc1	102.0	90.9	-5.0	104.3
47	COc1ccc(S(=O)(=O)Nc2cccc(-c3ccc(N4CCCC4)nn3)c2)cc1OC	86.7	72.9	·	106.2
48	C=C(C)c1cccc(C(C)(C)NC(=O)N2CCN(c3ccc(F)cc3)CC2)c1	97.5	93.5	-1.9	98.6
49	O=c1[nH]cnc2scc(C3COc4ccccc4O3)c12 (stereo not given)	101.5	71.1	-25.3	101.6
50	CN1C(=O)c2cc(C(=O)N3CCN(C4CCCCC4)CC3)nn2CC1(C)C(=O)NC1CCCC1 (stereo not given)	·	·	-5.8	100.0
51	Clc1cccc(-c2ccc(CNCc3ccc4c(c3)OCO4)o2)c1	·	·	-29.0	103.7
52	CCNc1nc(F)cc(=O)[nH]1	105.5	94.1	·	109.4
53	Cc1nc(/C(N)=N/O)cs1	105.2	72.0	-0.1	103.8
54	CCc1nnc(NC(=O)c2nc(SC)ncc2Cl)s1	110.1	94.3	-31.9	107.4
55	Cn1c(=O)[nH]c(=O)c2c(C(=O)NCCC3=CCCCC3)cc(=O)[nH]c21	·	·	-34.0	108.8
56	C=CCN1C(=O)NC(=O)/C(=C/c2ccc(OCc3ccccc3C#N)c(OCC)c2)C1=O	·	·	-15.1	107.7
57	Cc1cc(C)cc(NC(=O)CSc2nc3ncccc3[nH]2)c1	127.8	86.4	·	105.1
58	O=C(CSc1nccc(-c2cccs2)n1)Nc1cccc(Cl)c1	118.9	80.5	-18.5	104.0
59	CCN(CC)c1ccc(C2NC(=O)NC(c3cc(C)n(-c4cc(C(=O)OC)cc(C(=O)OC)c4)c3C)=C2C#N)cc1 (stereo not given)	80.6	89.2	-32.7	·
60	Cc1ccc(C(=O)NC2CC(C)(C)NC(C)(C)C2)cc1	95.8	77.2	-10.4	98.1

# Just Sa growth inh (2 entries from above):
No. | mol | Sa growth inh
57 | Cc1cc(C)cc(NC(=O)CSc2nc3ncccc3[nH]2)c1 | 127.8
58 | O=C(CSc1nccc(-c2cccs2)n1)Nc1cccc(Cl)c1 | 118.9

# (more compounds)
item	compound	Sa growth inh	Sa growth inh second temp	HCMV UL50-53 inh	GIV-Gai inh
61	CCCSC1=NC2(CCN(C(=O)NC3CCCCC3)CC2)N=C1c1ccccc1	84.3	93.3	·	104.4
62	O=C(Cn1c2c(c(-c3ccccc3)cc1=O)CCCC2)N1CCCC1	99.0	87.3	·	104.3
63	CSc1ccc(NC(=O)C2CC(O)CN2C(=O)Nc2ccccc2)cc1 (stereo not given)	128.6	100.9	16.6	106.2
64	Cc1cccc(N(CC(=O)Nc2ccc(Br)cc2)S(C)(=O)=O)c1C	98.7	94.6	·	96.8
65	Cc1cc(C)cc(C(=O)Nc2cc(C(F)(F)F)ccc2N2CCN(c3ccccc3)CC2)c1	106.7	93.3	-17.8	107.4
66	O=c1[nH]cc(S(=O)(=O)N2CCOCC2)c(=O)[nH]1	·	·	-5.3	105.7
67	C[N+]12CCCCC1C(COc1ccccc1Br)CCC2 (stereo not given)	95.7	91.6	1.6	·
68	CNC(=O)CN1C(=O)COc2ccc(C(=O)N3CCCC3)cc21	·	·	-34.0	102.1
69	CCC(=O)Nc1cccc(C)c1	120.5	94.8	-16.0	100.6
70	CC(=O)N(c1ccccc1)C1(C(=O)NC2CCCC2)CCCCC1	93.8	94.1	·	106.3
71	COc1cc2nc(SCc3ccc(C#N)cc3)n3nc(CCn4c(C)nc5ccccc54)nc3c2cc1OC	84.4	82.2	-27.6	104.3
72	O=C(NCc1ccc(F)cc1)c1cc(-c2cccnc2)on1	·	·	-13.4	105.9

# Record cards, from the list above. Values in the order: Sa growth inh	Sa growth inh second temp	HCMV UL50-53 inh	GIV-Gai inh
# O=c1[nH]cc(S(=O)(=O)N2CCOCC2)c(=O)[nH]1 is entered as ·	·	-5.3	105.7
# Cc1cccc(N(CC(=O)Nc2ccc(Br)cc2)S(C)(=O)=O)c1C is entered as 98.7	94.6	·	96.8
# COc1cc2nc(SCc3ccc(C#N)cc3)n3nc(CCn4c(C)nc5ccccc54)nc3c2cc1OC is entered as 84.4	82.2	-27.6	104.3
# CCC(=O)Nc1cccc(C)c1 is entered as 120.5	94.8	-16.0	100.6

# Additional compounds follow:
item	compound	Sa growth inh	Sa growth inh second temp	HCMV UL50-53 inh	GIV-Gai inh
73	O=C(O)CCC(=O)Nc1cccc(-c2nn(-c3ccccc3)cc2C(=O)O)c1	82.5	89.8	-20.1	·
74	COc1cccc(CNC(=O)CCc2c(C)c3ccc(O)c(C)c3oc2=O)c1	104.7	82.6	-39.4	94.7
75	COc1ccc(N(C)S(=O)(=O)c2cccc(C(=O)Nc3ccc(N4CCN(C)CC4)cc3C)c2)cc1	87.3	104.7	4.7	·
76	COc1cccc(OCC(=O)Nc2cccc(C#N)c2)c1	88.9	68.7	-19.8	100.0
77	O=C(Nc1ccc(Br)cc1F)c1cnn(-c2ccccc2)c1	·	·	-6.3	105.0
78	Cc1ccc(-c2noc(CCC(=O)N(C)c3ccccc3)n2)cc1	104.9	96.5	1.8	103.3
79	CCSc1nsc(NC(=O)Nc2ccc(OC)c(OC)c2)n1	·	·	-34.7	96.8
80	COc1ccc(OCC(F)(F)F)c(C(=O)Nc2cccnc2)c1	98.7	86.0	-16.2	102.1
81	CC(=O)Nc1cccc(NC(C)=C(C#N)C#N)c1	93.5	81.6	-23.9	·
82	CCOc1ccc(C(=O)OCCC2CCCN3CCCCC23)cc1 (stereo not given)	97.3	100.0	2.6	·
83	CCN(CC)c1ccc(C(=O)N2CCCCC2C)cc1 (stereo not given)	135.1	89.3	-0.4	·
84	CC(CNC(=O)CCc1nnc2ccc(N3CCCC3)nn12)c1ccccc1 (stereo not given)	91.5	85.9	-21.5	99.7
85	CSc1ccc(-c2nc3ncccn3c2Nc2ccccc2)cc1	85.4	87.0	·	99.8
86	CCN1CCN(Cc2ccc(NC(=O)CN3C(=O)CSc4ncccc43)cc2)CC1	127.9	100.8	1.8	108.8
87	O=C(Nc1ccc(F)cc1F)C1CC(=O)N(CCc2c[nH]c3ccc(F)cc23)C1 (stereo not given)	·	·	-5.1	100.0

# Assay outcomes deposited in PubChem BioAssay by ICCB-Longwood Screening Facility, Harvard Medical School.
